# High-throughput results as filed in PubChem BioAssay.
# gsp antagonist = antagonists of gsp mutant (McCune-Albright syndrome); gsp-mutant cells, cAMP HTRF, 30 min; control for the full effect not named in the record; Potency, µM (titrated, usually from 76.9 µM), without a hit: at the highest dose activity change, negative = inhibition, hits mostly inhibitors; 0.4% of 340,000 active; AID 624288; active = falling curve of any shape with a large fitted effect; inconclusive = falling curve, mostly with a smaller effect; inactive = flat or rising curve; cell line not stated here;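 also: intracellular cAMP measured with PDE inhibitor Ro 20-1724 present during compound exposure; potency is read from the fitted curve at half-maximal effect; % is scaled to controls: 0 for no effect and ±100 for the full control effect; nearly all actives have a fitted effect of over 65% in size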
#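 G418-selected cells were plated in DMEM/10% FBS for 16-24 h at 37C, then treated with compounds plus the PDE inhibitor […] (300 uM solution added) for 30 min at 37C. Intracellular cAMP was measured by HTRF after 30 min lysis at room temperature.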
# Sfp inh = inhibitors of Bacillus subtilis Sfp phosphopantetheinyl transferase | Biochemical Sfp PPTase activity, qHTS | 3.5% of 310,000 active | Q9F4F7 | Potency, µM, without a hit: max response, negative = inhibition, actives largely listed as inhibitors; active = well fitted inhibition curve with a large enough effect; inconclusive = small, poorly fitted or top-dose-only effect, or another doubt; inactive = no such curve, though single readings can be large or run the other way;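 also: the enzyme is Sfp with the accession as filed and its product quenches rhodamine fluorescence; potency is read from the fitted curve at half-maximal effect; 0% = enzyme reaction without inhibitor and -100% = no enzyme wells; top concentration of the series not given in the record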
#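 Fluorescence-quenching assay with 15 nM Sfp, 5 uM rhodamine-CoA and 12.5 uM BHQ-2-labelled ybbR peptide in pH 7.6 Hepes/MgCl2 buffer. Enzyme was pre-incubated with compound for 15 min at room temperature. Rate was taken from the 30-min fluorescence change (525/598 nm).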
# D2 potentiator = positive allosteric modulators of human D2 dopamine receptor; AID 624464; 0.23% of 360,000 active; potentiation, % (concentration not given with the values); DiscoveRx D2 beta-arrestin cells, luminescence, 90 min; 100% = 57 uM dopamine signal; P14416; active = potentiation of 50% or more; inconclusive = 30% to 50%; inactive = 30% or less;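 also: compound concentration not given in the record; tested on top of an EC20 dose of dopamine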
#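 PathHunter beta-arrestin assay in DiscoveRx D2 cells. Compounds were added with an EC20 of dopamine (50 nM final) for 90 min at 37 deg C. Luminescence was read 1 h after detection reagent, with 57 uM dopamine as the EC100 control.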
# Menin-MLL FL inh = displaces fluorescein MLL peptide from human menin | Fluorescence polarization, fluorescein-MLL peptide displacement from menin | FP activity change, % at 61.4 µM | 290,000 tested, under 10 active | AID 1766; inconclusive = falling polarisation curve, or a change in total fluorescence; inactive = total fluorescence flat and polarisation flat or rising; no compound was filed as active; the % refers to the polarisation; negative = inhibition;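 also: % of control where 0% means no effect; inhibitors lower the polarisation; unlabelled MLL peptide was the positive control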
# gsp ag = gsp mutant agonism; gsp mutant cells, cAMP HTRF, 30 min; control for the full effect not named in the record; Potency, µM (doses to about 76.9 µM), for the others: at the top dose activation (cAMP increase), hits mostly activators; 0.13% of 340,000 active; AID 624287; active = well fitted activation curve with a large enough effect; inconclusive = small, poorly fitted or top-dose-only effect, or another doubt; inactive = no such curve, though single readings can be large or run the other way; cell line not stated here;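 also: phosphodiesterase inhibitor Ro 20-1724 added with compounds to block cAMP breakdown; potency is read from the fitted curve at half-maximal effect; nearly all actives have a fitted effect of over 60% in size; about a fifth of the inactives were tested at one dose only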
#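 Cells in DMEM/10% FBS with G418 were pretreated with compounds in DMSO plus […] (300 uM stock) for 30 min at 37C. cAMP was measured by HTRF (cAMP-d2 plus anti-cAMP antibody-K) after 30 min at room temperature.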
# ClpP mod = qHTS Assay for Activators of ClpP | Potency, µM (doses to about 57.5 µM), for inactives: top-dose activity change, negative = active | 1.9% of 340,000 active | ATP-dependent Clp protease proteolytic subunit (Bacillus subtilis (strain 168)), P80244 | AID 651965, 2013 | purified B. subtilis ClpP, FRET peptide cleavage, 20 min; active = well fitted falling curve with a large enough effect; inconclusive = small, poorly fitted or top-dose-only effect; inactive = no such curve, though single readings can be large or run the other way; also: potency is read from the fitted curve at half-maximal effect; the source files actives as falling curves though it sought activators and does not explain the sign; nearly all actives have a fitted effect of over 65% in size; many hits overshoot -100%
# Target sequence (P80244 whole entry, looked up): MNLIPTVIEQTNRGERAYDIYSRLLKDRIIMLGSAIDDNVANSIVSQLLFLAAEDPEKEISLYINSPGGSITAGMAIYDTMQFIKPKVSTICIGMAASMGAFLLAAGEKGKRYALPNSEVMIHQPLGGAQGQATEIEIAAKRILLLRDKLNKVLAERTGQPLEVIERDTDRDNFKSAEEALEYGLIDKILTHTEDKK
#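 Purified B. subtilis ClpP, 10 microg/mL final in Tris/HCl pH8 with KCl, BSA, glycerol and Tween-20, cleaved an Abz/nitrotyrosine-quenched decapeptide. Fluorescence (ex 320, em 430) was read at 0 and 20 min at room temperature. Delta was normalized to 5.8 microM ADEP and DMSO/no-enzyme controls.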
# TRPV1 potentiator = human TRPV1 potentiation; Q8NER1; TRPV1-expressing cells, Fluo-8 calcium influx, capsaicin EC20 potentiation; host cell line not named in the record; control for the full effect not named in the record; potentiation, % at 8.33 µM; 0.02% of 320,000 active; active means potentiation above 80%; inconclusive means 30% to 80%; inactive means below 30%; also: 0% is about no effect
# Target sequence (Q8NER1 whole entry, looked up): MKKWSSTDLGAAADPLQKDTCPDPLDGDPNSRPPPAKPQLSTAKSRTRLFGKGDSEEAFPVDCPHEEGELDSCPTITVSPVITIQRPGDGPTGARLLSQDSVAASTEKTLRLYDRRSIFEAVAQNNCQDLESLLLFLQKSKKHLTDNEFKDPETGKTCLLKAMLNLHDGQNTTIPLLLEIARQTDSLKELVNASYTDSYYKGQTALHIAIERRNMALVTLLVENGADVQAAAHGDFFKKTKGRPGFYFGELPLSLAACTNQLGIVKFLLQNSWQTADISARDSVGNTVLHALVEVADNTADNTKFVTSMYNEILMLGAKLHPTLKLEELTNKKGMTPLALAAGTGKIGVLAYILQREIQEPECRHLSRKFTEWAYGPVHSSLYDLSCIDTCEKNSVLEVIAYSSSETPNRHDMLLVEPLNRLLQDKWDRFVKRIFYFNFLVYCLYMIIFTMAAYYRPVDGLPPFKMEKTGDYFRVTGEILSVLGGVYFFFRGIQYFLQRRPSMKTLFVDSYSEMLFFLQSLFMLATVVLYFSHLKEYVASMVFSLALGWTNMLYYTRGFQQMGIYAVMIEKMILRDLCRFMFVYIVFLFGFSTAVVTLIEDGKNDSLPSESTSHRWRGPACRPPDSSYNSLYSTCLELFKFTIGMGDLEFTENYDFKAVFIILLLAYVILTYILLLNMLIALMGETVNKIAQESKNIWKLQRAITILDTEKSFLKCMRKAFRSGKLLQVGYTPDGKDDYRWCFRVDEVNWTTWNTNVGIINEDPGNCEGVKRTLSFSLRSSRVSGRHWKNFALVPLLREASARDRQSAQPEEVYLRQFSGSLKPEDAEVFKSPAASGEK
#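 TRPV1-expressing cells were cultured overnight at 35.5C and loaded with Fluo-8 calcium dye for 40 to 90 min at room temperature. After a 10 s baseline, compound was added and calcium influx was read kinetically for 3 min (ex 480/em 520 nm).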
# Numbers without * were called inactive; ? = inconclusive; / = not tested or not shown; & = joins results of further samples; [ ] = another dose, or the depositor's remark.
SMILES,gsp antagonist,Sfp inh,D2 potentiator,Menin-MLL FL inh,gsp ag,ClpP mod,TRPV1 potentiator
CN1CCN(Cc2nc3ccccc3c(=O)n2Cc2nc(-c3cccc([N+](=O)[O-])c3)cs2)CC1,-9%,-5%,7,2.8,22%[15.4 µM],/,-4
COc1cccc(CC(NC(C)=O)C(=O)NC2CCN(C(=O)NCc3ccccc3)CC2)c1 (stereo unspecified),8%,17%,-6,-1.1,3%[15.4 µM],/,-19
O=C(COC(=O)C1=COCCO1)NCCCc1ccccc1,10%,9%,11,-0.4,?,3.0%,1
Cc1nc2ccccc2n1CC(=O)NCc1ccccc1,-11%,29%,-3,-2.7,5%,0.1%,-3
O=C1CCC[C@@H]2Cc3nc4ccccc4cc3[C@@H]3CCN1[C@H]23,4%,/,-18,/,/,-1.9%&-0.7%,/
Cc1ccc(Cl)cc1N1CCN(S(=O)(=O)c2ccc(-c3ccc(=O)[nH]n3)o2)CC1,-6%,6%,-12,0.5,13%,-0.4%,-14
COc1ccc(N(C)S(=O)(=O)c2cccc(C(=O)Nc3nnc(C4CC4)s3)c2)cc1,-10%,-5%,-5,?,2%[15.4 µM],/,7
COc1ccc(C2c3c(ncn(CCCN4CCOCC4)c3=N)Oc3ccc4ccccc4c32)cc1OC (stereo unspecified),3%,0%,-7,3.3,12%,-3.1%,-4
Cc1ccc(C(=O)C[n+]2ccccc2C)cc1[N+](=O)[O-],4%,-2%,-4,-1.7,-15%,/,6
CCc1cccc(NC(=O)NC2CCCCC2)c1,12%,-6%,-18,-0.4,-21%,2.0%,-14
O=C(NCCc1ccc(Cl)cc1)c1cc(=O)[nH]c2ccccc12,2%,-28%,-5,-5.5,6%[15.4 µM],/,7
CC(CC(=O)OCC(=O)NCc1ccc(Cl)cc1)c1ccccc1 (stereo unspecified),19%,/,2,/,-9%,0.1%,-6
Cc1cc(C(=O)CSc2nnc(-c3ccccc3)o2)c(C)n1CC1COc2ccccc2O1 (stereo unspecified),-3%,-9%,9,-0.4,4%,-1.4%,11
COc1ccc(NC(=O)Cc2cccc(F)c2)cc1S(=O)(=O)Nc1ccccc1Cl,-12%,18%,-1,-0.9,-1%[15.4 µM],/,-12
O=S(=O)(Cc1ccccc1)N1CCCCCC1,3%,21%,-8,-0.9,0%,0.8%,1
CCN1CCSc2ccc(C(=O)NCc3cccc(F)c3)cc21,-9%,-5%,-9,-0.4,1%,4.5%&4.5%,-14
CC(=O)NNS(=O)(=O)c1ccccc1[N+](=O)[O-],14%,20%,10,1.7,-14%,-1.8%,-2
COc1ccc(C(=O)OCC(=O)Nc2ccc(Cl)c(C(F)(F)F)c2)c(OC)c1OC,?,6%,-18,1.6,2%,0.9%,1
Cc1ccc(C(=O)COC(=O)CCCC(=O)Nc2cc(C(F)(F)F)ccc2Cl)cc1C,-5%,2%,-25,2.7,44%,-2.6%&-0.3%,14
CCCSc1nnc(-c2cccc(S(=O)(=O)N(C)C)c2)n1-c1cc(OC)ccc1OC,-11%,8%,-4,4.2,-43%[inhibitor],-1.2%,-13
Cc1[nH][nH]c(=O)c1C(c1ccc(-c2ccc(F)cc2)o1)c1c(C)[nH][nH]c1=O,-1%,?,-3,2.3,-33%,/,3
COC(=O)c1sccc1NC(=S)Nc1ccc(F)cc1F,-6%,-12%,16,-1.1,19%,-2.0%,-4
Fc1ccc(NC(=S)N2CCn3cccc3C2c2cccnc2)cc1 (stereo unspecified),5%,4%,-20,-0.8,5%[15.4 µM],1.2%,-14
CCN1CC2CCCC3(C1)C(=O)NC1(CCCCC1)N=C23 (stereo unspecified),7%,0%,-13,0.6,-35%[inhibitor],0.8%,-10
COc1ccc(-c2nc(C#N)c(NCc3ccccc3Cl)o2)cc1OC,7%,-4%,-12,4.5,6%,?,0
Cc1nccn1Cc1cccc2ccccc12,-1%,2%,-5,0.0,28%[15.4 µM],-0.5%,-1
COC(CNC(=O)c1c[nH]c2ccc(S(=O)(=O)N(C)c3ccc(F)cc3)cc2c1=O)OC,-27%,8%,-2,-6.0,1%,3.0%,-23
CN(C)S(=O)(=O)Oc1ccsc1C(=O)Nc1ccc(Cl)cc1,7%,12%,-17,3.4,-12%,1.6%,-16
COc1ccc(CCNc2cc(C)nc3c(-c4ccccc4)cnn23)cc1OC,?,?,-14,?,15%,28µM*,-32
N/C(=N\OC(=O)c1ccc2c(c1)OCO2)c1ccc(Cl)cc1,2%,10%,?,1.1,-43%[inhibitor],-1.2%,-26
CCOc1cc(/C=C2/C(=N)N3OC(C)=CC3=NC2=O)ccc1OC(=O)c1ccco1,?,-1%,-3,?,22%,-4.4%,6
CCOC(=O)CCCNC(=O)CCNC(=O)c1ccc(OC)cc1,5%,-8%,-6,-1.2,-54%[inhibitor],0.3%,4
O=C(NCc1ccccc1)NCc1cccs1,-3%,15%,-5,1.5,-1%,/,-2
O=C(COC(=O)CSc1ccc([N+](=O)[O-])cc1)NCCC1=CCCCC1,12%,/,-9,/,13%,-4.7%,-6
Nc1nnc(C(=O)c2ccccc2N)s1,-7%,/,-20,/,-11%,-0.9%,/
CCOC(=O)c1c(NC(=O)C2CCN(S(=O)(=O)c3ccc(Cl)cc3)CC2)sc2c1CCCC2,-5%,10%,-11,6.1,-30%,-29%,-2
COc1ccccc1C(C#N)N1N=C(C)CC1c1ccccc1 (stereo unspecified),-2%,17%,-3,-3.6,28%,-14%,6
COc1cccc(NC(=O)CCN2CCN(c3ccccc3F)CC2)c1,15%,11%,-8,1.1,5%,-2.0%,-22
Cc1ccc(C(=O)N(CC(C)C)c2c(N)n(Cc3ccccc3)c(=O)[nH]c2=O)o1,7%,/,-66,/,-29%[15.4 µM],/,-1
COc1ccc(C2c3[nH]c4ccccc4c3C[C@H]3C(=O)N(c4ccccc4C(=O)N4CCC(C(=O)O)CC4)C(=O)N23)cc1 (stereo partly specified),3%,9%,-33,-8.6,/,-7.2%,8
O=C(C1CCCCC1)N1CCN(S(=O)(=O)c2ccc(Br)cc2)CC1,-11%,-17%,3,3.1,-5%,0.8%,/
CC1CCN(C(=O)COC(=O)Cn2cnc3ccccc32)CC1,10%,/,-7,/,-15%[15.4 µM],1.2%,/
C/C(=N\NC(N)=O)c1ccc(Cl)s1,-1%,1%,-2,1.3,9%[15.4 µM],/,-12
O=c1c(F)cn(C2CCCO2)c(=O)n1Cc1ccccc1F (stereo unspecified),2%,24%,-7,0.2,7%,-15%,3
CCn1cc(CN2CCC(C(=O)Nc3ccc(Oc4ccccc4)nc3)CC2)cn1,10%,-8%,-16,/,-8%,1.0%,-6
CCN(CC)c1cc(C)c2cc(NC(=O)c3ccc(Br)o3)ccc2n1,-13%,?,-12,6.0,12%,-8.1%,-22
O=C(CN1C(=O)NC2(CCCC2)C1=O)N1CCN(S(=O)(=O)c2ccccc2)CC1,-3%,24%,6,0.9,-39%[inhibitor],/,-4
COc1cc(S(=O)(=O)N2CCN(c3ccccn3)CC2)ccc1Br,3%,13%,-6,0.8,-6%[15.4 µM],-1.5%,-28
CCN(CC)S(=O)(=O)c1ccc2c(c1)c(=O)c(C(=O)N1CCOCC1)cn2C,17%,25%,-6,3.2,?,-2.3%,-1
COc1ccc(CN(C(=O)c2ccco2)c2ccc(C)cc2)cc1OC,-15%,-22%,5,-2.8,-12%,0.6%,-22
CC1=N/C(=C/c2ccc([N+](=O)[O-])cc2)C(=O)N1c1ccc(Cl)cc1Cl,-6%,-12%,-22,1.2,-22%,-0.4%,10
Cc1cc(C)cc(N(CC(=O)N2CCOCC2)S(=O)(=O)c2ccccc2)c1,-1%,24%,6,-2.4,-20%,1.1%,-20
COCCN(C(=O)CNC(=O)c1ccco1)C(C(=O)NC1CCCC1)c1ccc(F)cc1 (stereo unspecified),8%,16%,0,-1.1,-4%,/,4
C[C@H](CO)N1C[C@H](C)[C@@H](CN(C)C(=O)Nc2ccc(C(F)(F)F)cc2)Oc2ccc(NS(=O)(=O)c3ccccc3)cc2C1=O,-22%,/,4,/,/,1.8%,/
O=C(Nc1nnc(/C=C/c2ccccc2)s1)c1ccco1,-5%,22%,-20,0.5,0%,?,9
CCC12CN3CC(CC)(CN(C1)C3c1ccccc1Cl)C2O (stereo unspecified),14%,1%,-1,2.5,22%,-0.6%,16
COc1ccc(-c2cc(C(=O)NCc3cn(C)nc3C)c3ccccc3n2)cc1OC,4%,4%,1,4.9,35%,-2.9%,1
CCCc1nc(-c2ccccc2)c(-c2ccc(OC)c(OC)c2)c(=O)[nH]1,-5%,13%,-6,3.3,0%,-9.8%,3
CCOC(=O)C1CCN(C(=O)COc2ccc(Br)cc2Br)CC1,-4%,-26%,-6,-6.7,-15%,-0.1%,-1
CCS(=O)(=O)N1CCCC(C(=O)NCCN(C)Cc2ccccc2)C1 (stereo unspecified),12%,16%,-15,0.1,2%,1.5%,-3

# Next part:
SMILES,gsp antagonist,Sfp inh,D2 potentiator,Menin-MLL FL inh,gsp ag,ClpP mod,TRPV1 potentiator
CN(Cc1ccccc1)C(=O)c1ccc(NC(=O)Cc2cccc(NC(=O)C3CCN(C(=O)C4CCCCC4)CC3)c2)cc1,9%,/,-8,/,-13%,-0.1%,-2
O=C(COc1ccc(Cl)cc1)N/N=C/c1cccc2cccnc12,-4%,-16%,-6,/,-3%[15.4 µM],20%,-35
O=C(N[C@H]1CC1c1ccccc1)c1ccc([N+](=O)[O-])cc1 (stereo partly specified),8%,2%,-13,-0.9,-4%,1.5%,-22
CC1(c2ccccc2)NC(=O)N(CC(=O)NCCN2C(=O)S/C(=C\c3cccnc3)C2=O)C1=O (stereo unspecified),-7%,/,-1,/,9%,-0.5%,/
CCC(C)[C@H](NC(=O)Nc1ccccc1F)C(=O)OC (stereo partly specified),11%,4%,-7,4.7,-7%[15.4 µM],0.2%,/
CCOc1cc(C(=O)N/N=C/C2CC=CCC2)cc(OCC)c1OCC (stereo unspecified),28%,?,-31,2.7,13%[15.4 µM],1.4%,8
CCOC(=O)CN(C(=O)CSc1nnc(-c2ccc(OC)c(OC)c2)o1)c1ccc(F)cc1,6%,-6%,-17,3.2,-39%[inhibitor],-0.3%,6
